HPGD block = HPGD (human) dehydrogenase inhibition. purified HPGD, NADH fluorescence kinetic, PGE2 substrate. Potency, µM, for the others: top-dose activity change, negative = inhibition, actives largely listed as inhibitors. 150,000 compounds, 4.3% hits. AID 894; active = well fitted inhibition curve with a large enough effect (not every such curve was filed as active); inconclusive = small, poorly fitted or top-dose-only effect, or another doubt; inactive = no such curve, though single readings can be large or run the other way;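 note: top concentration of the series not given in the record; plate controls included wells without enzyme; inactives centre near -10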
Target sequence (P15428 whole entry, looked up): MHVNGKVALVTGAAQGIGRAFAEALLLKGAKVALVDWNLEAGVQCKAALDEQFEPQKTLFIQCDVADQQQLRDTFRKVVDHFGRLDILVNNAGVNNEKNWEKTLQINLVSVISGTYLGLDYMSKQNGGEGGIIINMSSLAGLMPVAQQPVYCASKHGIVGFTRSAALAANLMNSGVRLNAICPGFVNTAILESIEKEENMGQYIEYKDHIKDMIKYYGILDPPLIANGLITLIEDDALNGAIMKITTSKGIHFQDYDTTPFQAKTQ
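NADH formation kinetics: reaction with 30 uM PGE2 and 1 mM NAD+ (final), 20 nM enzyme, Tris-HCl pH 8 with Tween 20, after 15 min compound preincubation at room temperature. Fluorescence change, last versus first of five reads.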
* hit, by the source's call; ? = inconclusive. % is set by controls: 0 for no effect and ±100 for the full control effect; potency is the fitted concentration of half-maximal effect. This is a subset; rates above refer to the full screens.

Cc1ccc(C(=O)C2=C(O)C(=O)N(CCCn3ccnc3)C2c2ccc(OC(C)C)cc2)o1 (centres undefined)
  HPGD block: -8%

CO[C@H]1[C@@H](OC(N)=O)[C@H](O)[C@@H](Oc2ccc3c(O)c(NC(=O)c4ccc(O)c(CC=C(C)C)c4)c(=O)oc3c2C)OC1(C)C
  HPGD block: 1%

COc1cccc(/C=N/n2c(=O)[nH]c3ccccc32)c1OC
  HPGD block: -6%

O=C(CCl)Nc1nc(-c2ccco2)c(-c2ccco2)s1
  HPGD block: ?

CCCc1cc(=O)[nH]c(SCc2ccccc2Cl)n1
  HPGD block: 14µM*

COc1ccc(N2C(=O)C(Cl)=C(Nc3c(C)n(C)n(-c4ccccc4)c3=O)C2=O)cc1
  HPGD block: ?

NC(=O)CSc1nc2ccccc2c(=O)n1Cc1ccco1
  HPGD block: -7%

CC1=C(C(=O)OCC(C)C)C23C(=O)c4ccccc4C2(O1)OC(N)=C3C#N (centres undefined)
  HPGD block: -5%

CN1CCN(C(=S)NC(=O)/C=C/c2ccccc2)CC1
  HPGD block: -4%

N#CC(C#N)=C(N)/C(C#N)=C/c1ccc(O)cc1
  HPGD block: ?

CC(C)(C)NC(=O)Cn1c(-c2nonc2N)nc2ccccc21
  HPGD block: -12%

Cc1nc2sc(C(=O)c3ccccc3)c(N)c2c2c1CCCC2
  HPGD block: -21%

CCCCNC(=O)CCc1c(C)nc2nc(-c3cc(OC)cc(OC)c3)nn2c1C
  HPGD block: -11%

O=C(Nc1ccc(N2CCN(C(=O)c3ccccc3)CC2)cc1)c1ccc2c(c1)OCO2
  HPGD block: -5%

COc1ccc(C(=O)NNC(=O)C(C)NC(=O)c2ccccc2NC(=O)c2ccco2)cc1 (centres undefined)
  HPGD block: -15%

CCOc1ccccc1C(=O)NC1CCN(Cc2nnnn2C2CCCC2)CC1
  HPGD block: -7%

Cc1cccc(NC(=O)C2CC(=O)N/C(=N/N=C/c3ccco3)S2)c1 (centres undefined)
  HPGD block: -12%

COc1cccc(-c2cc(=O)c3cc(O)ccc3o2)c1
  HPGD block: -15%

COC(=O)c1c(NC(=S)Nc2ccccc2Cl)sc(C)c1C
  HPGD block: -10%

C=CCn1c(SCC(=O)Nc2cccc3ccccc23)nnc1-c1cnccn1
  HPGD block: -14%

NS(=O)(=O)c1ccc(NC(=S)Nc2cc(Cl)c(Cl)cc2Cl)cc1
  HPGD block: -28%

O=C(NCc1ccccn1)Nc1cccc(Cl)c1
  HPGD block: -3%

O=C(O)CCSC1=NCCN1
  HPGD block: -3%

C[C@H]1CC[C@]2(OC1)O[C@@H]1C[C@@H]3[C@@H]4CC[C@H]5C[C@@H](O)CC[C@]5(C)[C@@H]4CC(=O)[C@@]3(C)[C@H]1[C@@H]2C
  HPGD block: -5%

Cc1oc(C(=O)O)cc1COc1ccc2c3c(c(=O)oc2c1)CCC3
  HPGD block: ?

O=S(=O)(Nc1ccc2c(c1)OCCO2)c1ccc(F)cc1
  HPGD block: -6%

CCOc1ccc(Br)cc1S(=O)(=O)Nc1nc(CN2CCOCC2)nc2sc(C)c(C)c12
  HPGD block: -5%

CCSc1nc2sc3c(c2c(=O)n1CC)CC(C)(C)OC3
  HPGD block: -11%

Cc1onc(-c2ccccc2)c1C(=O)Nc1ccccc1N1CCOCC1
  HPGD block: -15%

COCCNC(=O)C(c1ccco1)N(C(=O)Cn1nnc2ccccc21)c1cccc(C)c1C (centres undefined)
  HPGD block: 5%

COc1ccc2c(Cl)c(C(N)=O)sc2c1
  HPGD block: -13%

O=S(=O)(O)c1ccc2c(N=Nc3cccc4ccccc34)c(O)c(S(=O)(=O)O)cc2c1
  HPGD block: -30%

CCCCOC(=O)c1ccc(NC(=O)CSC2=Nc3ccccc3C3CC=NN23)cc1 (centres undefined)
  HPGD block: -10%

Fc1ccc(Nc2c(-c3ccco3)nc3ccccn23)cc1
  HPGD block: ?

O=C(COc1ccccc1)NCCSc1ccccc1
  HPGD block: -20%

CCOC(=O)c1cccc(NC(=O)c2cnccn2)c1
  HPGD block: ?

O=C(O)c1cnccn1
  HPGD block: -3%

CCc1noc(C)c1C(=O)Nc1nc(-c2cc(C)ccc2C)c(C)s1
  HPGD block: -18%

Cn1cccc1C(=O)N1CCC2(CCCN(Cc3ccc(C#N)cc3)C2)CC1
  HPGD block: -2%

CCOC(=O)c1ccc(NC(=O)CSc2ncccn2)cc1
  HPGD block: -12%

Cc1onc(-c2ccccc2Cl)c1C(=O)Nc1ncn[nH]1
  HPGD block: -8%

O=C1NC(=S)S/C1=C\c1ccc(SCc2ccccc2)o1
  HPGD block: 18µM*

Brc1ccc(-c2nnc3sc(CN4CCN(c5ccccc5)CC4)cn23)cc1
  HPGD block: -1%

CCCCn1nnnc1SCC(=O)Nc1sc2c(c1C#N)CCCC2
  HPGD block: -14%

CSCCC(Nc1ncnc2ccc(Br)cc12)C(=O)O (centres undefined)
  HPGD block: -19%

Sorted by SMILES length (smallest number first): some entries from above.
Fc1ccc(Nc2c(-c3ccco3)nc3ccccn23)cc1
  HPGD block: ?

Cn1cccc1C(=O)N1CCC2(CCCN(Cc3ccc(C#N)cc3)C2)CC1
  HPGD block: -2%

CCCCOC(=O)c1ccc(NC(=O)CSC2=Nc3ccccc3C3CC=NN23)cc1 (centres undefined)
  HPGD block: -10%

Carrying on:
C/C=C/C(=O)Nc1cccc(C(F)(F)F)c1
  HPGD block: 5%

NCCOc1cnn(-c2ccccc2Cl)c(=O)c1Cl
  HPGD block: -11%

COc1ccccc1C1(CC(=O)N2CCOCC2)CCOC(C(C)C)C1 (centres undefined)
  HPGD block: -23%

Brc1cccc(Cn2c(-c3cncs3)nc3ccccc32)c1
  HPGD block: -12%

COc1ccccc1N(CC(=O)NC(C)(C)C)C(=O)Cn1nnc(-c2ccc(C)o2)n1
  HPGD block: -7%

Cc1nn(C)c(C)c1S(=O)(=O)NCc1cccs1
  HPGD block: -7%

COc1ccc2cc3cc(C(=O)NCC4CCCO4)oc3nc2c1 (centres undefined)
  HPGD block: ?

COc1ccc(NC(=O)N2CC[C@@]3(CCCN(C(=O)c4ccc(OC)cc4)C3)C2)cc1
  HPGD block: 4%

CCOC(=O)c1c(C)[nH]c(C(=O)COC(=O)CCC2CCCC2)c1C
  HPGD block: -11%

COc1ccc(S(=O)(=O)N2CCN(Cc3cccc(Cl)c3)CC2)cc1
  HPGD block: -9%

Cc1cc(C)n(-c2nc3c(c(=O)[nH]c(=O)n3C)n2CC(O)COc2ccccc2C)n1 (centres undefined)
  HPGD block: -16%

Cc1ccc(S(=O)(=O)N2CCC(=O)N(CCOCc3ccccc3C)CC2)cc1
  HPGD block: -5%

O=C(O)[C@@H]1CCCN1
  HPGD block: -5%

CC(C)(C)c1cc(=O)n(-c2ccccc2)[nH]1
  HPGD block: -19%

CN1C2CCC1/C(=C/c1cccn1C)C(=O)/C2=C\c1cccn1C
  HPGD block: 28µM*

O=C(NCc1ccco1)[C@@H]1CSC2c3ccccc3C(=O)N21 (some centres undefined)
  HPGD block: -8%

Cc1sc2ncnc(OCC(=O)c3ccc(S(=O)(=O)N4CCCC4)cc3)c2c1C
  HPGD block: -2%

CC/C(=N\NC(=O)CSCc1ccc(Cl)cc1)c1ccc2c(c1)OCCO2
  HPGD block: -5%

c1ccc(-c2cc(-c3ccncc3)nc3ccc4ccccc4c23)cc1
  HPGD block: ?

COC(=O)c1ccc(N2CCC(C)CC2)c(N)c1
  HPGD block: ?

CCOC(=O)c1c(N)sc2c1CCN(Cc1ccccc1)C2
  HPGD block: -25%

Cc1cccc2cc(CN(Cc3cccs3)Cc3nnnn3Cc3ccccc3)c(=O)[nH]c12
  HPGD block: -29%

COc1ccc(CCNC(=O)CCCCn2c(=O)[nH]c3ccccc3c2=O)cc1OC
  HPGD block: -1%

CCC(C)C(=O)Nc1nc(C)c(-c2csc(Nc3ccccc3OC)n2)s1 (centres undefined)
  HPGD block: ?

CCc1c(C)c2c(C)[nH]nc2oc1=O
  HPGD block: -16%

CC(C)c1ccc(S(=O)(=O)N2CCN(C(=S)NCc3ccco3)CC2)cc1
  HPGD block: 28µM*

COC(=O)c1ccc(-n2c(C)nc(=O)c(-c3ccccc3)c2C)cc1
  HPGD block: 0%

C=CCN1C(=O)N/C(=C/c2ccc(N3CCOCC3)o2)C1=O
  HPGD block: -20%

COc1cc2c(cc1OC)C(=O)NCC(C)(C)O2
  HPGD block: -19%

Cc1ccccc1Nc1nnc(SCC(=O)NC(=O)NCc2ccco2)s1
  HPGD block: -19%

Cc1nn(Cc2cccc(C(=O)Nc3ccn(Cc4c(F)c(F)cc(F)c4F)n3)c2)c(C)c1[N+](=O)[O-]
  HPGD block: -5%

O=C(Cn1cc2c(n1)CCCCC2)NC1CCN(Cc2ccccc2)CC1
  HPGD block: 1%

N#Cc1ccc(CN2CCC3(CC2)CCN(C(=O)c2cc(C(F)(F)F)cc(C(F)(F)F)c2)CC3)cc1
  HPGD block: -5%

CCSc1nc2cc(OC)c(OC)cc2c(=O)n1CC
  HPGD block: -13%

Cc1cccc(-n2c(=O)c(C#N)cc3c(=O)n4ccccc4nc32)c1
  HPGD block: ?

Cc1onc(-c2ccccc2Cl)c1C(=O)Nc1nnc(Cc2ccc(Cl)cc2)s1
  HPGD block: -7%

O=C(CSc1nc2ccsc2c(=O)n1NC(=O)c1ccccc1)Nc1nccs1
  HPGD block: -16%

c1coc(CNC2CCCCC2)c1
  HPGD block: -12%

c1ccc(CCNc2nc(-c3cccnc3)cs2)cc1
  HPGD block: -15%

O=C(C[n+]1ccc(C(=O)N/N=C/c2ccc(O)cc2)cc1)c1ccccc1
  HPGD block: -14%

CC(=O)c1cc2c(cc1NS(=O)(=O)c1ccc(C)cc1)OCCO2
  HPGD block: ?

COc1ccccc1C1C(C(N)=O)=C(C)Nc2nc(-c3ccccc3Cl)nn21 (centres undefined)
  HPGD block: -1%

Cc1cc(=O)oc(C)c1C(=O)N1CCN(C)CC1
  HPGD block: -2%

COc1ccc(NC(=O)CSc2nnc(C3CCCCC3)n2-c2ccccc2)cc1
  HPGD block: -13%

Fc1cccc(NCc2cn3ccccc3n2)c1
  HPGD block: ?

O=C(O)c1ccc(-c2nc(-c3ccccc3)c(-c3ccccc3)[nH]2)cc1
  HPGD block: ?

Cc1nc(N/N=C/c2ccccn2)sc1C
  HPGD block: -6%

CC1CCC(N2CCN(c3ncccn3)CC2)C1 (centres undefined)
  HPGD block: -11%

CCCCn1c(S(=O)(=O)O)nc2ccccc21
  HPGD block: -4%

COc1ccc(-c2oc3ccc(C)cc3c(=O)c2O)cc1OC
  HPGD block: -5%

Cc1ccccc1Nc1nnc(SCC(=O)Nc2ccccc2[N+](=O)[O-])s1
  HPGD block: ?

COC(=O)CSc1nc(NC(C)=O)nc(C)c1Br
  HPGD block: -4%

CCOC(=O)C1=C(C)N(C)C(=O)NC1c1ccccc1OC (centres undefined)
  HPGD block: -4%

C(=C\c1ccccc1)/CSc1nnc(-c2ccncc2)n1Cc1ccco1
  HPGD block: -19%

COc1ccc(NCc2c(O)ccc3ccccc23)cc1
  HPGD block: -8%

Cc1noc(C)c1S(=O)(=O)N1CCN(Cc2ccc3c(c2)OCO3)CC1
  HPGD block: -4%

Cc1cccc2cc(CN(CC3CCCO3)C(c3nnnn3Cc3ccco3)C(C)C)c(=O)[nH]c12 (centres undefined)
  HPGD block: -1%

Cc1cc(C)c(S(=O)(=O)NNC(=O)C2CCN(Cc3ccccc3)CC2)c(C)c1
  HPGD block: -3%

COc1ccc(CC(=O)NC(C)(C)CC(C)=O)cc1OC
  HPGD block: -10%

Cc1ccc(S(=O)(=O)Cc2ccc(C(=O)NCCCN3CCN(C)CC3)o2)cc1
  HPGD block: -4%

16 entries already listed, sorted by length of the SMILES, smallest number first:
Cc1nc(N/N=C/c2ccccn2)sc1C
  HPGD block: -6%

Fc1cccc(NCc2cn3ccccc3n2)c1
  HPGD block: ?

CC1CCC(N2CCN(c3ncccn3)CC2)C1 (centres undefined)
  HPGD block: -11%

CCCCn1c(S(=O)(=O)O)nc2ccccc21
  HPGD block: -4%

COc1ccc(NCc2c(O)ccc3ccccc23)cc1
  HPGD block: -8%

Cc1cc(=O)oc(C)c1C(=O)N1CCN(C)CC1
  HPGD block: -2%

COc1ccc(CC(=O)NC(C)(C)CC(C)=O)cc1OC
  HPGD block: -10%

COc1ccc(-c2oc3ccc(C)cc3c(=O)c2O)cc1OC
  HPGD block: -5%

C(=C\c1ccccc1)/CSc1nnc(-c2ccncc2)n1Cc1ccco1
  HPGD block: -19%

Cc1noc(C)c1S(=O)(=O)N1CCN(Cc2ccc3c(c2)OCO3)CC1
  HPGD block: -4%

Cc1ccccc1Nc1nnc(SCC(=O)Nc2ccccc2[N+](=O)[O-])s1
  HPGD block: ?

COc1ccccc1C1C(C(N)=O)=C(C)Nc2nc(-c3ccccc3Cl)nn21 (centres undefined)
  HPGD block: -1%

O=C(O)c1ccc(-c2nc(-c3ccccc3)c(-c3ccccc3)[nH]2)cc1
  HPGD block: ?

Cc1ccc(S(=O)(=O)Cc2ccc(C(=O)NCCCN3CCN(C)CC3)o2)cc1
  HPGD block: -4%

Cc1cc(C)c(S(=O)(=O)NNC(=O)C2CCN(Cc3ccccc3)CC2)c(C)c1
  HPGD block: -3%

Cc1cccc2cc(CN(CC3CCCO3)C(c3nnnn3Cc3ccco3)C(C)C)c(=O)[nH]c12 (centres undefined)
  HPGD block: -1%

Continued:
CCN(CC)S(=O)(=O)c1ccc(OC(C)C)nc1
  HPGD block: -4%

CCCC(=O)Nc1ccc(N2CCN(C(=O)CCC)CC2)cc1
  HPGD block: -9%

Cc1nc(N2CCN(C(=O)c3ccc(Cl)cc3)CC2)c(C#N)c2c1COC(C)(C)C2
  HPGD block: ?

O=S(=O)(c1ccccc1)c1nc(-c2ccco2)oc1N1CCOCC1
  HPGD block: -3%

O=c1[nH]c(CN2CCN(c3ccccc3)CC2)nc2scc(-c3ccccc3)c12
  HPGD block: -15%

Cc1ccc(C(=O)c2nc3c(n2O)CCCC3)cc1
  HPGD block: -20%

C=CCn1c(=NC(=O)c2ccccc2[N+](=O)[O-])sc2cc(S(C)(=O)=O)ccc21
  HPGD block: 0%

Assay outcomes: PubChem, National Center for Advancing Translational Sciences (NCATS)
